# Rango-impB inh – inhibitors of Rango-importin beta complex formation. Q14974. Rango CFP/YFP FRET sensor + importin beta, 45 min. Potency, µM (top dose mostly 92.2 µM), inactives show at the top dose inhibition of complex formation. 340,000 compounds, 0.031% hits. AID 540263; active = rising FRET ratio curve, often small or poorly fitted; inconclusive = mostly compound fluorescence or quenching in the first reads; inactive = flat curves in all reads;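 further: potency means the concentration at half of the fitted maximal effect; 0% = DMSO wells and 100% = buffer wells lacking importin beta; nearly all actives have a fitted effect of over 15% in size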
# Target sequence (Q14974 whole entry, looked up): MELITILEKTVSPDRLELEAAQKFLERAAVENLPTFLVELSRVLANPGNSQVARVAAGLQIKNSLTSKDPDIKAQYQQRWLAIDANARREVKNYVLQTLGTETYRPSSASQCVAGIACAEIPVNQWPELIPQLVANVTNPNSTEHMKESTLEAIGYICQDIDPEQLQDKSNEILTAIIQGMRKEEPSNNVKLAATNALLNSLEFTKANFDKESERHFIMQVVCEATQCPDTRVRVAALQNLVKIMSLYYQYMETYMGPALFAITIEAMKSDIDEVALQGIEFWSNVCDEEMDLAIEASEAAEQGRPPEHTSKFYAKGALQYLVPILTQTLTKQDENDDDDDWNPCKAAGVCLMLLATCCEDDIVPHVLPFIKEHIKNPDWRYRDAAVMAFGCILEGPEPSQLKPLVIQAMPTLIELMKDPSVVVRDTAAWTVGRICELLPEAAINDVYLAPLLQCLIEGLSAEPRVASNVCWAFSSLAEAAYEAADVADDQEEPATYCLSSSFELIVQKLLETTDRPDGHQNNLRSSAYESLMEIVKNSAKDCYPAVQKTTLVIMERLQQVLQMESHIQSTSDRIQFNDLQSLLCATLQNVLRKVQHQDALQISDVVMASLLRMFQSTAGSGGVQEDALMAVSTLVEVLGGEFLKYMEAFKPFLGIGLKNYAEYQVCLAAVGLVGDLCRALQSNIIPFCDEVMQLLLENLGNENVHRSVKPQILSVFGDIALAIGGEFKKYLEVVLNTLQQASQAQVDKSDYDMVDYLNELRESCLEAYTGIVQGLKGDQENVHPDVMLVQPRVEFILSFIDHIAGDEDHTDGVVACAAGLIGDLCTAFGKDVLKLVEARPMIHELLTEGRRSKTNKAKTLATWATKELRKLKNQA
#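 FRET biosensor Rango (snurportin 1 IBB between N-terminal EYFP and C-terminal Cerulean), 50 nM in PBS/1 mM DTT/0.02% Tween-20/0.1% BSA, preincubated 5 min RT with compound; 0.125 microM importin beta added, 45 min RT, CFP/YFP FRET ratio read.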
# GLA inh pH 4.5 – inhibitors of human alpha-galactosidase A at pH 4.5; P06280; purified enzyme, 4-MU-alpha-Gal fluorescence, pH 4.5; activity change, negative = inhibition, % at 105 µM; 230,000 tested, under 10 active; AID 1467; inconclusive = small, poorly fitted or top-dose-only inhibition, or a rising curve; inactive = flat fitted curve, though single readings scatter; no compound was filed as active;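 further: 0% = full activity with enzyme and -100% = basal without enzyme; dose as in the result columns while the protocol names 77 µM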
# Rango release inh – inhibition of RanGTP-driven Rango-importin beta dissociation; Biochemical FRET Rango-importin beta, RanGTP-induced dissociation; Potency, µM (top dose mostly 46.1 µM), for the others: at the highest dose activity change, negative = inhibition; 340,000 compounds, 0.071% hits; active means falling FRET ratio curve, often poorly fitted, with flat reads before Ran was added; inconclusive means other falling curves, or compound fluorescence or quenching; inactive means flat or rising ratio curve;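 further: potency means the concentration at half of the fitted maximal effect; % of control where 0% means no effect; nearly all actives have a fitted effect of over 45% in size; -100% = wells without RanGTP and RCC1; the record marks most hits as doubtful in a second field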
#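 Two FRET readings bracket the reaction: one 5 min after compound meets Rango–importin beta, another 45 min after RanGTP-RCC1 (0.6 uM Ran, 0.2 uM RCC1, 2 mM GTP) is added. Only the second defines inhibition.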
# miR-21 reporter – raises the signal of a miR-21 reporter. Potency, µM (highest dose often 38.3 µM), for the others: top-dose reporter change, positive = more light. AID 2288. 340,000 tested, under 10 active. HeLa miR-21 FLuc reporter, luciferase, 48 h; active = well fitted rising curve with a large enough effect; inconclusive = small, poorly fitted or top-dose-only effect; inactive = no such curve, though single readings can be large or run the other way;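 further: % of control where 0% means no effect; miR-21 action dims this reporter so a rising signal means less miR-21 action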
#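 HeLa cells endogenously expressing miR-21, stably carrying CMV-driven firefly luciferase with a downstream miR-21 binding site, 2000 cells/well. Titrations up to approximately 40 uM, 48 hours; luciferase luminescence read.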
# * = called active by the depositor; ? = inconclusive; . = not tested or not shown; & = joins results of further samples.
smiles	Rango-impB inh	GLA inh pH 4.5	Rango release inh	miR-21 reporter
N#Cc1ccsc1NC(=O)CN1CCN(c2ccccc2)CC1	0.3%	2	-15%	-11%
O=C(c1cc(C2CC2)on1)N1CCN(C(c2ccccc2)c2ccccc2)CC1	1.9%	-7	-7%	-3%
Cc1ccccc1CCNC(=O)CCn1nc(C)c2c(C)n(-c3ccccc3)nc2c1=O	3.9%	.	9%	-2%
COc1ccc(OC)c2sc(NC(=O)c3ccc(Cl)s3)nc12	-2.7%	-1	23%	3%
COc1ccccc1NC(=S)N(CCCN1CCOCC1)Cc1cccs1	3.7%	3	0%	11%
Cc1cccc(-n2c(N)cc(=O)[nH]c2=S)c1C	0.3%	-6	-17%	-5%
CC(=O)c1ccc(NC(=O)c2ccc(NC(=O)CCS(=O)(=O)c3cccs3)cc2)cc1	5.0%	-10	0%	1%&-30%
CNc1nc(OC)nc(N2CCOCC2)n1	0.6%	-2	12%	-5%
O=C(CS(=O)(=O)c1ccc(C(F)(F)F)cn1)NNC(=O)c1ccccc1	0.2%	6	-18%	-4%
Cc1cc(-c2ccccc2)nc(N(C)NC(=O)c2cccc(C(F)(F)F)c2)c1S(C)(=O)=O	3.5%	-6	23%	1%
Cn1c(SCC(=O)N2CCCCC2)nnc1-c1ccc(S(=O)(=O)N2CCOCC2)cc1	5.0%	-5	-5%	4%
O=C(CSc1nc(-c2ccccc2)cc(=O)[nH]1)N1CCOCC1	-0.3%	4	0%	-1%

# Random excerpt: 2 compounds from above
smiles	Rango-impB inh	GLA inh pH 4.5	Rango release inh	miR-21 reporter
Cc1ccccc1CCNC(=O)CCn1nc(C)c2c(C)n(-c3ccccc3)nc2c1=O	3.9%	.	9%	-2%
Cc1cccc(-n2c(N)cc(=O)[nH]c2=S)c1C	0.3%	-6	-17%	-5%

# The listing continues.
smiles	Rango-impB inh	GLA inh pH 4.5	Rango release inh	miR-21 reporter
CCCCn1c(N)c(N(CCC(C)C)C(=O)c2cc(CC)c(C)s2)c(=O)[nH]c1=O	-2.0%	.	0%	.
CC(NC(=O)c1cc2c(=O)n3ccccc3nc2n(CC2CCCO2)c1=N)c1ccccc1 (stereo unspecified)	?	.	?	-2%
Cc1ccccc1C(=O)N1CCC(C(=O)NN2C(=O)NC3(CCC(C)CC3)C2=O)CC1 (stereo unspecified)	0.0%	.	-2%	.
Cc1ccc(S(=O)(=O)CCC(=O)OCC(=O)Nc2cc(C)on2)cc1	0.9%	-4	21%	0%
O=C(Nc1nc(-c2ccccc2)cs1)c1ccc(S(=O)(=O)N2CCc3ccccc32)cc1	-0.2%	8	-3%	13%
CCn1nccc1C(=O)Nc1cc(Cl)ccc1Cl	-0.2%	5	12%	-20%
Cc1[nH]c2ccccc2c1N=Nc1ccc(F)cc1	?	-6	-9%	-22%
CC(NS(=O)(=O)c1cc(C(F)(F)F)ccc1Cl)C(=O)N(C)C1CCN(C)CC1 (stereo unspecified)	-5.0%	.	10%	.
COc1cc2ccccc2cc1C(=O)N1CCN(c2ccccc2O)CC1	2.1%	.	-3%	.
COC(=O)Nc1c(C(=O)OC)cc(OC)c(OC)c1OC	-3.0%	1	3%	1%
Cc1cc(N=Nc2c(O)c3ccccc3[nH]c2=O)ccc1N=Nc1ccc(C(=O)N(C)C)cc1	-5.1%	5	-6%	-28%
COc1ccc(CCC(=O)OCC(=O)c2cccc(OC)c2)cc1	-4.0%	2	8%	0%
COc1ccc(S(=O)(=O)NCc2ccc(F)cc2)cc1OC	-1.3%	-4	6%	-10%
Cc1cc(C)c(NC(=O)CNC(=O)COC(=O)Cc2ccccc2C)c(C)c1	-0.5%	.	0%	.
Cc1cccc(NC(=O)CN2C(=O)c3ccccc3C2=O)c1C	-0.5%	10	-2%	1%
Cc1ccc(C(=O)NCC(c2ccc(F)cc2)N2CCOCC2)cc1S(=O)(=O)N1CCOCC1 (stereo unspecified)	-0.8%	.	-4%	.
COc1ccc(C(=O)COC(=O)CN2C(=O)NC(C)(C)C2=O)cc1OC	-0.4%	-2	1%	-7%
Cc1ccc(CNC(=O)c2ccc3c(c2)NC(=O)C(N2CCOCC2)S3)cc1 (stereo unspecified)	1.1%	-16	13%	-4%
CCOCCCNC(=S)N1CCCN(c2nc3c(C)c(C)ccc3cc2C#N)CC1	?	-1	?	-18%
COc1ccc(N/C=C/C(=O)C(C)(C)C)cc1	-1.0%	-6	-2%	-2%
COC(=O)CSc1nc(NC(C)C)nc(N2CCOCC2)n1	-0.6%	5	-10%	-8%
CC(C)N(C(=O)CSc1nnc(-c2cc3ccccc3cc2O)n1Cc1ccco1)C(C)C	-0.2%	-5	-3%	13%
O=C1c2ccccc2N2C(=O)c3ccccc3C2N1Cc1ccco1 (stereo unspecified)	-1.4%	3	-1%	1%
N#Cc1cnn2c(-c3cccc([N+](=O)[O-])c3)ccnc12	0.6%	.	-5%	.
CCNc1nc(SCC(=O)OC)nc(N(C)C)n1	-4.4%	1	3%	0%
COC(=O)c1ccc(Nc2cc(C)nc3nc(C)nn23)cc1	?	3	0%	3%
O=[N+]([O-])c1ccc(NC2CCCCC2)nc1	-1.7%	.	-3%	.
O=C1CC(c2ccccc2Br)c2cc3c(cc2N1)CCC3 (stereo unspecified)	.	-12	.	-2%
O=C(/C=C\c1cn(-c2ccccc2)nc1-c1ccc2c(c1)OCCO2)N1CCOCC1	0.6%	-27	15%	-8%
O=C(COC(=O)C1(c2ccc(Cl)cc2)CCCC1)NCc1ccco1	-0.4%	1	-6%	3%
CC(=O)C1=C(c2ccccc2)NC(=O)NC1c1ccccc1 (stereo unspecified)	1.2%	.	-2%	3%
CN(C)c1ccc(NC(=O)CN2CCC(C(=O)c3ccc(F)cc3)CC2)cc1	2.5%	8	-6%	1%
O=C(Cc1cccs1)Nc1nnc(SCc2ccc(C(F)(F)F)cc2)s1	-0.6%	-3	-3%	-1%
Cc1ccc(S(=O)(=O)c2nc(C)oc2N2CCOCC2)cc1	-2.2%	6	0%	2%
COc1ccc(CC(=O)N2CCC(CCC(=O)Nc3ccccc3)CC2)cc1	-1.0%	.	1%	-2%
COc1cc(/C=C/C(=O)N(Cc2ccccc2)c2ccccn2)cc(OC)c1OC	-1.3%	1	4%	-7%
Cc1ccc(S(=O)(=O)N2CCN(C(=O)CN3CCc4ccccc4C3)CC2)cc1	-2.5%	2	-4%	-3%
Cc1cccc(-n2c(-c3cccc([N+](=O)[O-])c3)nc3nc4ccccc4nc32)c1	.	5	.	0%
COc1ccccc1Oc1ccc(S(=O)(=O)N2CCCCC2)cc1NC(=O)CCNC(C)=O	0.3%	.	0%	-3%
COc1ccc(NC(=O)c2nn(C)c3c2CS(=O)(=O)c2ccccc2-3)cc1	7.8%	.	-3%	-5%
COc1ccc(N/C=C/C(=O)C(F)(F)F)cc1	?	1	-11%	-4%
COC(=O)c1cc(NC(=O)C2(S(=O)(=O)c3ccc(Cl)cc3)CC2)cc(C(=O)OC)c1	-1.2%	3	7%	-2%
O=C(CSc1nc2ccccc2c(=O)n1NC(=O)Cc1ccccc1)NCCc1ccccc1	-3.3%	6	-8%	2%
O=C(O)c1ccc(COc2ccc3ccccc3c2)o1	0.7%	9	12%	-51%
Cc1ccccc1Cc1n[nH]c(=S)n1N	-0.2%	9	13%	0%
Cc1ccc(-n2[nH]c(C)c(/C=N/c3ccccn3)c2=O)cc1	3.0%	-1	-8%	-14%
O=C(N/N=C/c1ccc(Cl)cc1)c1nc2ccc([N+](=O)[O-])cc2c(=O)[nH]1	-0.4%	-4	?	0%
CN(Cc1cccs1)C(=O)Cn1cnc2cc([N+](=O)[O-])ccc2c1=O	0.1%	-6	-8%	3%
N=C1S/C(=C\c2ccccc2F)C(=O)N1c1ccc(F)cc1	?	-6	-11%	-10%
O=C(NCC(c1cccnc1)N1CCN(c2ccccc2F)CC1)OCc1ccccc1 (stereo unspecified)	-1.2%	1	2%	15%
Cc1[nH]c2ccccc2c1-c1csc(NC(=O)CN2CCOCC2)n1	1.0%	-14	-6%	-1%
O=C(NC12CC3CC(CC(C3)C1)C2)c1ccc(-c2ccc(Cl)cc2)o1	-3.5%	-14	-4%	-49%
O=C(CSc1nnc(Cc2cc(=O)[nH]c(=O)[nH]2)n1-c1ccccc1)N1CCCC1	1.9%	10	5%	-1%
O=C(Nc1ccncc1)c1ccc(Cl)c(Cl)c1	10%	.	-9%	-11%
COC(=O)c1cc(N=C(N)N=C(N)N)cc(C(=O)OC)c1	0.3%	0	-3%	0%
O=C(c1ccco1)N1CCN(S(=O)(=O)c2ccc3c(c2)CCN3C(=O)C2CC2)CC1	1.6%	-5	-20%	3%
C1=CC2=NC34CCCCC3CC3=C(CCCC3)N4C2=CC1=NC1CCCCC1 (stereo unspecified)	?	.	-30%	.
C[C@@H]1CN([C@@H](C)CO)C(=O)Cc2cc(NS(=O)(=O)c3cn(C)cn3)ccc2O[C@@H]1CN(C)C(=O)Nc1ccccc1	-1.5%	.	1%	.
CN(C)NC(=O)c1cccc(Cl)c1	0.2%	-2	2%	3%
Cc1ccc(S(=O)(=O)N(C)C)cc1NC(=O)CN1CCCC1	4.8%	.	-10%	-6%

# Additional records follow:
smiles	Rango-impB inh	GLA inh pH 4.5	Rango release inh	miR-21 reporter
O=C(O)/C=C\c1ccccc1Oc1ccc(F)cc1	3.5%	6	-10%	2%
Cc1noc(C)c1COc1ccc(C(=O)NNC(=O)c2ccccc2F)cc1	2.6%	.	26%	.
CCN(Cc1ccccc1)c1ccc(/C=N/NS(=O)(=O)c2ccc(C)c([N+](=O)[O-])c2)cc1	?	-20	?	-5%
CCn1cc(C(=O)O)c(=O)c2cnc(N3CCN(C(=S)Nc4ccccc4Cl)CC3)nc21	-4.7%	0	-5%	-1%
OC(CNCCc1ccc(Cl)cc1Cl)COc1ccccc1 (stereo unspecified)	0.6%	.	0%	-3%
Cc1ccc(C(=O)NCCCN2CCOCC2)c(C)c1	1.2%	.	-7%	-31%
O=c1c2cccc(Cl)c2nc2n1Cc1ccccc1-2	-0.4%	2	1%	-42%
COc1cc(C(=O)OCC(=O)c2c[nH]c3ccccc23)ccc1OCC(=O)N1CCOCC1	-1.1%	4	-8%	-3%
CC(=O)Nc1ccc(S(=O)(=O)N(C)CC(=O)N2CCN(C(=O)c3ccco3)CC2)cc1	-2.6%	.	11%	.
C[C@H]1NC(=O)[C@@]2(C)[C@@H](c3ccccc3)[C@H]3COc4ccccc4[C@H]3N2C1=O	-3.8%	.	0%	.
Cc1nn(CCCC(=O)NCCc2ccc(Cl)cc2)c(=O)c2nn(-c3ccccc3)c(C)c12	0.4%	.	-1%	3%&2%
O=C(COC(=O)c1cc(-c2cccc3ccccc23)nc2ccccc12)NC1CCS(=O)(=O)C1 (stereo unspecified)	-0.7%	-8	-6%	3%
CCOC(=O)COc1cc2oc(=O)cc(C)c2cc1[N+](=O)[O-]	3.9%	0	-17%	0%
Cc1cc(C)nc(SCc2nnc(SCC(N)=O)n2Cc2ccco2)n1	-6.0%	6	13%	-7%
O=C(COC(=O)/C=C/c1cnc2ccccc2n1)NCC(F)(F)F	1.5%	5	5%	-1%
O=Cc1cccc(OC(=O)/C=C/c2ccco2)c1	-3.8%	.	17%	-39%
CCOC(=O)CCC(NC(=O)CCCCC(=O)NC(CCC(=O)OCC)C(=O)OCC)C(=O)OCC (stereo unspecified)	-0.1%	4	-18%	-1%
CC1CC(C)(C)CC2(C1)NC(=O)N(CC(=O)N1CCN(Cc3ccc(C#N)cc3)CC1)C2=O (stereo unspecified)	-0.7%	.	3%	.
C=CCNC(=S)NNC(=O)c1csc(C)c1C	-0.5%	-2	3%	-6%
CCc1cccc(CC)c1NC(=O)c1cccc(NC(=O)c2ccccc2)c1	?	0	-5%	2%
Cc1cccc2sc(N(CCCN(C)C)C(=O)COc3ccc(Cl)cc3)nc12	-1.6%	-4	?	8%

# Source: PubChem BioAssay (National Center for Advancing Translational Sciences (NCATS))

# Not all compounds are listed, so the mix of outcomes need not match the whole.
